From PubChem BioAssay
CBX7 AlphaScr: CBX7 chromodomain binding inhibitors, primary screen, biochemical, AlphaScreen; Chromobox protein homolog 7 (Homo sapiens), O95931; AID 1224903, 2016; normalised signal (fraction of DMSO) (test concentration not listed); 1.1% of 66,000 active; AlphaScreen His6-CBX7 / biotin-H3K27me3 peptide binding; hits give low values; in the data active means normalised signal below about 0.5;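 further: 100 nL library stock added to about 20 µL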
Target sequence (O95931 whole entry, looked up): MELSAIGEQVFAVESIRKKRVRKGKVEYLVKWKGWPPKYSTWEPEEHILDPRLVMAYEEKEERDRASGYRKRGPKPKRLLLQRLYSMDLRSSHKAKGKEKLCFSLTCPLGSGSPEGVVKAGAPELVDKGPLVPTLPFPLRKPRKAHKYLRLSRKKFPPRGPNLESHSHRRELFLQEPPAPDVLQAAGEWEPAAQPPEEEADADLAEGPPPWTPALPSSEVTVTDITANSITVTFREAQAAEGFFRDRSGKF
CBX7 AlphaScr z-score: also measured in CBX7 AlphaScr; calls as there; z-score; measured here: z-score of CBX7 signal; some inactives read as strong as hits; reference of the scale not given here;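 same signal on another scale; lower means less binding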
An asterisk follows results filed as active. Only part of the results is shown; the hit share may differ from the screen's.

SMILES	CBX7 AlphaScr	CBX7 AlphaScr z-score
O=C(Nc1cccc(C(F)(F)F)c1)C1c2ccccc2C(=O)N2CCc3ccccc3C12 (stereo not drawn)	1.07	1.44
CCOC(=O)c1cnc2c(C(F)(F)F)cccc2c1NCc1ccccc1	1.24	10.7
COc1cc2c(=O)c(S(=O)(=O)c3ccccc3)cn(CC(=O)Nc3ccccc3)c2cc1OC	0.946	-2.01
Cc1ccc2c(c1)NC(=O)C(CC(=O)NCCCN1CCC(N3CCCCC3)CC1)O2 (stereo not drawn)	1.04	1.5
Cc1nc2ncnn2c(C)c1CCC(=O)NC(C)c1cccs1 (stereo not drawn)	1.08	1.52
Cc1nc2cc(-c3ccccc3)nn2c(C)c1CCC(=O)NCc1cccnc1	1.02	0.58
CCCCNC(=O)C1(c2ccc(OC)cc2)CCOCC1	1.06	0.923
Cc1[nH]c2ccccc2c1C1(O)C(=O)N(Cc2ccccc2)c2ccccc21 (stereo not drawn)	1.06	0.955
CCCc1nc2ccccc2n1CC(O)COc1c(C)cc(C)cc1C (stereo not drawn)	0.933	-1.69
CC1CCN(CCCNC(=O)CN2CCN(Cc3ccc(Cl)cc3)C2=O)CC1	0.897	-1.48
O=C(Nc1ccccc1)c1cccnc1N1CCOCC1	0.985	-0.532
Cn1c(SCC(=O)Nc2nccs2)nc2ccccc21	1.05	1.75
CCOc1ccc(NC(=O)CN2C(=O)CC(c3ccc(OC)cc3)Sc3ccccc32)cc1 (stereo not drawn)	0.993	-0.117
CC1CCN(S(=O)(=O)c2ccc(C(=O)Nc3nnc(C4CC4)o3)cc2)CC1	0.74	-2.5
CCN(Cc1ccccc1)C(=O)c1cc2c(s1)-c1ccccc1OC2	1.4	9.81
Cc1cccc(C)c1NC(=O)N1CCC(N2CCCCC2)CC1	1.06	2.67
c1ccc(C2(CNc3ncnc4sc5c(c34)CCCC5)CCCC2)cc1	0.974	-0.634
COCCCNC(=O)c1ccc2c(c1)ncn2-c1cccc(F)c1	0.959	-0.494
Cc1cc2cc(CCNC(=O)c3cccc(Cl)c3)c(=O)[nH]c2cc1C	0.976	-1.07
CCN(CC)C(=O)c1ccc2c(c1)N(Cc1c(F)cccc1Cl)C(=O)c1ccccc1S2	0.87	-0.565
O=C(CC1Sc2ccc(C(F)(F)F)cc2NC1=O)Nc1cccc2ccccc12 (stereo not drawn)	1.01	0.248
CC(C)c1ccc(C(c2ccccc2)N2CCN(C(=O)CCc3c[nH]c4ccccc34)CC2)cc1 (stereo not drawn)	0.586	-2.96
c1ccc(CNc2nc3ccccc3c3nc(-c4ccccc4)nn23)cc1	1.01	0.131
COc1ccc(NC(=O)C2CCN(c3nnc(-n4cccc4)s3)CC2)cc1Cl	1.13	1.36
Fc1ccc(Oc2nnc(-c3ccccc3)c3ccccc23)cc1Cl	0.812	-1.84
O=C(NCc1cccs1)c1noc2c1CCc1ccccc1-2	1.25	1.62
c1ccc(-c2ncc(CSc3nc4ccccc4s3)o2)cc1	1.02	0.328
Cc1ccnc(NS(=O)(=O)c2ccc(NC(=O)CC(C)c3ccccc3)cc2)n1 (stereo not drawn)	0.927	-0.831
Cc1ccc2c(c1)N(CCC(=O)NCC1CCCO1)C(=O)CO2 (stereo not drawn)	1	0.0619
COc1ccc(C(=O)c2cn(Cc3ccc(F)cc3)c3ccc(C)cc3c2=O)cc1	0.529	-4.5
O=C(Nc1c2c(nn1-c1cccc(Cl)c1)CS(=O)(=O)C2)C1(c2ccc(Cl)cc2)CCCC1	0.874	-0.826
CC(=O)N1CCc2cc(S(=O)(=O)NCCC(=O)N3CCN(c4ccccc4)CC3)ccc21	0.905	-1.76
COc1ccc(N2CCN(c3oc(COc4ccc(C)cc4)nc3C#N)CC2)cc1	0.485*	-14.7*
CC(=O)N1CCc2cc(Br)cc(S(=O)(=O)NCCCN3CCCC(C)C3)c21 (stereo not drawn)	1.43	4.36
COc1ccc(CCNC(=O)c2ccc3c(c2)N(Cc2ccccc2C)C(=O)c2ccccc2S3)cc1OC	0.896	-4.06
COc1ccc(NC(=O)C(C)N2C(=O)c3ccccc3C2=O)cc1 (stereo not drawn)	1.03	1.13
O=C(NCc1ccccc1)C1CCCN(C(=O)c2cnn(-c3ccccc3)c2-n2cccc2)C1 (stereo not drawn)	1.15	1.17
CN(CC(=O)Nc1ncc(Br)s1)S(=O)(=O)c1cccc2cccnc12	1.17	3.94
CCOC(=O)c1ccc(NC(=O)c2c(Cl)ccc(Cl)c2OC)cc1	1.12	0.205
COCCNC(=O)c1cn(C2CCCC2)c(=O)c2c1c1ccccc1n2C	1.05	0.049
COCCNC(=O)CCn1nc(-c2ccc(Cl)cc2)ccc1=O	1.03	0.63
N=c1n(CCOc2ccccc2)c2ccccc2n1CC(N)=O	1.02	0.565
CCCNC(=O)Cn1cnc2sc(C(=O)NC3CCCCCC3)c(C)c2c1=O	1.02	0.245
CCc1cccc(NC2c3ccccc3C(=O)N2Cc2ccccc2Cl)c1 (stereo not drawn)	0.925	-0.188
CCCNC(=O)Cn1c(=O)n(C)c2ccccc21	1.04	0.975
CC(=O)N1CCc2cc(S(=O)(=O)Nc3ccc(C)c(F)c3)ccc21	0.95	-1.62
COc1ccc(CCNC(=O)C(=O)NC(C)C(c2cccs2)N2CCN(C)CC2)cc1 (stereo not drawn)	0.973	-0.6
COCCCNC(=O)c1ccc2c(c1)ncn2-c1ccc(OC)cc1	1.03	0.317
Cc1ccc(Nc2nc(-c3ccccc3)nc3ccccc23)cc1	1.32	12.6
Cc1ccc(SCC(=O)Nc2nnc(CCS(=O)(=O)c3ccc(C)cc3)s2)cc1	0.95	-1.19
Cn1c(=O)c2cc(N3CCOCC3)nnc2n(C)c1=O	0.86	-1.66
CCOC(=O)c1cccc(C(=O)Nc2nc3ccc(OC)cc3s2)n1	1.14	2.34
CCCN(C(=O)CCC(=O)Nc1ccc2nc(N3CCOCC3)cc(C)c2c1)c1ccc(CC)cc1	0.746	-0.335
CCOc1ccc(C2C(=O)N(C3CCCCCC3)CC(=O)N2CCC2=CCCCC2)cc1OC (stereo not drawn)	0.83	-1.71
O=C(Nc1ccc(O)c(-c2nc3ccccc3s2)c1)c1cc(Br)ccc1Cl	1.06	0.734
Cc1ccc2c(c1)C(c1ccc(F)cc1)N(C(=O)COc1ccccc1)CC(=O)N2 (stereo not drawn)	0.718	-5.13
CCc1ccccc1Nc1cc(C(=O)NCCN2CCOCC2)c2ccccc2n1	1.04	0.665
Cc1cccc(CSc2nc3ccncc3n2CC(=O)Nc2ccc(C)cc2Cl)c1	1.02	0.236
O=S1(=O)N=C(c2cccc(F)c2)Nc2ccccc21	1.04	1.7
CCOc1ccccc1NC(=O)CSc1nccn1-c1cc(C)cc(C)c1	0.63	-13.9

Of the compounds above, 3 contain bromine:
SMILES	CBX7 AlphaScr	CBX7 AlphaScr z-score
CC(=O)N1CCc2cc(Br)cc(S(=O)(=O)NCCCN3CCCC(C)C3)c21 (stereo not drawn)	1.43	4.36
CN(CC(=O)Nc1ncc(Br)s1)S(=O)(=O)c1cccc2cccnc12	1.17	3.94
O=C(Nc1ccc(O)c(-c2nc3ccccc3s2)c1)c1cc(Br)ccc1Cl	1.06	0.734

Additional records.
SMILES	CBX7 AlphaScr	CBX7 AlphaScr z-score
CCOc1ccc(-c2nc(CSCC(=O)N3CCC(C(N)=O)CC3)c(C)o2)cc1	0.973	-0.372
CCCOc1ccc(C(=O)Nc2cccc(-c3nc4cc(C)ccc4o3)c2C)cc1	1.07	2.65
O=C1CC(Cc2ccccc2)C(=O)N1Cc1ccccc1 (stereo not drawn)	1.12	1.94
Cc1cc(Nc2cccc(C(F)(F)F)c2)nc(N2CCOCC2)n1	1.1	3.42
Cc1ccc(-c2nc(S(=O)(=O)c3ccc(C)cc3)c(N(C)C)o2)cc1	0.979	-0.442
COc1ccc(C2(C(=O)NCCCN(C)C)CCCC2)cc1	1.24	3.03
Cc1cccc(NC2=NS(=O)(=O)c3cc([N+](=O)[O-])ccc32)c1	1.07	1.83
CCc1ccc2c(c1)c(=O)c(S(=O)(=O)c1ccc(F)cc1)cn2CC(=O)Nc1ccccc1C	0.955	-0.741
COc1ccc(OCC(O)CN2CCN(c3ccc(OC)cc3)CC2)cc1 (stereo not drawn)	1.06	0.576
CC(C)(C)OC(=O)N1CCC(c2c(C(=O)Nc3ccccc3Cl)cnn2-c2ccccc2)CC1	0.998	-0.0566
CCC(C)c1ccc(OCC(=O)Nc2cc(-c3nc4ncccc4o3)ccc2Cl)cc1 (stereo not drawn)	1.01	0.208
Cc1cccc(OCC(=O)Nc2ccc(S(=O)(=O)Nc3ncccn3)cc2)c1C	1.04	1.29

Reprinted at random: two records from the list
SMILES	CBX7 AlphaScr	CBX7 AlphaScr z-score
Cc1cc(Nc2cccc(C(F)(F)F)c2)nc(N2CCOCC2)n1	1.1	3.42
CCc1ccc2c(c1)c(=O)c(S(=O)(=O)c1ccc(F)cc1)cn2CC(=O)Nc1ccccc1C	0.955	-0.741

Continued:
SMILES	CBX7 AlphaScr	CBX7 AlphaScr z-score
O=C1CN(C(=O)CCc2ccccc2)C(c2ccc(F)cc2)c2cc(F)ccc2N1 (stereo not drawn)	1.06	1.46
Cn1c(=O)c2c(ncn2CC(=O)Nc2ccc(F)cc2)n(C)c1=O	1.14	1.46
Clc1ccc(CCNc2ccc3nncn3n2)cc1	1.11	1.34
CCCCCc1ccc(-c2ccc(C3OCC(CCC)CO3)cc2)nc1 (stereo not drawn)	0.935	-0.837
CCN(CC)S(=O)(=O)c1ccc2c(c1)N(CC(=O)NCCc1ccc(C)cc1)C(=O)CO2	1.03	1.38
Cc1ccc(Cl)cc1N1CCN(C(=O)c2c[nH]n3c(=O)c(Cc4ccccc4F)c(C)nc23)CC1	0.954	-1.07
Cc1ccc(-c2noc(CCC(=O)N(C)c3ccccc3Cl)n2)cc1	1.09	3.25
O=C1CC(c2ccccc2Cl)Cc2c1cnn2-c1nc2ccccc2s1 (stereo not drawn)	1.12	1.34
Cc1noc(/C=C/c2cccs2)c1S(=O)(=O)N1CCCC(C(=O)NCCC(C)C)C1 (stereo not drawn)	1.03	0.929
CCc1ccc2c(c1)c(=O)c(S(=O)(=O)c1ccc(C)cc1)cn2CC(=O)Nc1ccc(OC)cc1	0.69	-4.45
Cc1cc(Nc2cccc(C(F)(F)F)c2)nc(-c2ccccc2O)n1	1.19	3.79
Cc1c(C(=O)Nc2ccc(F)cc2)sc2ncnc(N3CCN(c4ccccc4)CC3)c12	0.924	-0.971

Reformatted bar-delimited: 2 of the compounds above
mol | CBX7 AlphaScr | CBX7 AlphaScr z-score
CCCCCc1ccc(-c2ccc(C3OCC(CCC)CO3)cc2)nc1 (stereo not drawn) | 0.935 | -0.837
CCN(CC)S(=O)(=O)c1ccc2c(c1)N(CC(=O)NCCc1ccc(C)cc1)C(=O)CO2 | 1.03 | 1.38

Some of the entries so far, with two lines to a compound.
Fields – CBX7 AlphaScr	CBX7 AlphaScr z-score
COc1cc2c(=O)c(S(=O)(=O)c3ccccc3)cn(CC(=O)Nc3ccccc3)c2cc1OC
 : 0.946	-2.01
CCCc1nc2ccccc2n1CC(O)COc1c(C)cc(C)cc1C (stereo not drawn)
 : 0.933	-1.69
O=C(NCc1cccs1)c1noc2c1CCc1ccccc1-2
 : 1.25	1.62
CCCN(C(=O)CCC(=O)Nc1ccc2nc(N3CCOCC3)cc(C)c2c1)c1ccc(CC)cc1
 : 0.746	-0.335

(further entries)
SMILES	CBX7 AlphaScr	CBX7 AlphaScr z-score
Cc1ccc2nc(-c3ccc(NC(=O)/C=C/C(=O)O)cc3)sc2c1	1.09	1.9
CCN(CC)c1ccc(C(=O)Nc2ccccc2-c2nc3ccccc3s2)cc1	1.26	7.06
CC1(C)Cc2c(cnn2-c2ccc(F)cc2)-c2nc3ccccc3nc21	1.04	0.141
Cc1c(C(=O)N2CCN(c3ccccn3)CC2)sc2ncnc(N(C)c3ccccc3)c12	1.03	1.14
CCOc1ccc2nc(NC(=O)c3cccc(C(=O)OC)n3)sc2c1	1.02	0.358
COc1ccc(Cn2c(=O)c3cccnc3n(CC#N)c2=O)cc1	0.963	-0.66
Cc1cccc(CSc2nc3ccncc3n2Cc2nc(-c3ccccc3F)oc2C)c1	1	0.00948
CCCOc1ccc(C2C(=O)N(C3CCCCCC3)CC(=O)N2Cc2ccc(F)cc2)cc1OC (stereo not drawn)	0.695	-1.23
Cc1ccc(C)c(Nc2nc3ccccc3nc2NS(=O)(=O)c2ccccc2)c1	0.891	-3.15
COCCNC(=O)CSc1nc(-c2ccc(F)cc2)[nH]c1-c1ccc(Cl)cc1	0.991	-0.237
COc1cc2c(C(=O)NCc3cccnc3)cn(CC(C)C)c(=O)c2cc1OC	0.937	-1.64
COc1ccc(-c2nn(C)c3sc(C(=O)NCCC4=CCCCC4)cc23)cc1OC	0.997	-0.0769
COc1ccc(CCNC(=O)Cn2ncc3c2-c2ccccc2OC3)cc1OC	0.856	-1.81
CC1CN(S(=O)(=O)c2ccc(C(=O)Nc3nnc(-c4ccccc4Cl)o3)cc2)CC(C)O1 (stereo not drawn)	0.0411*	-4.22*
CCN(CC)S(=O)(=O)c1ccc2[nH]cc(C(=O)NCc3ccc(F)cc3)c(=O)c2c1	0.949	-0.783
CCC1=Nc2cc(C(=O)NCCN3CCOCC3)ccc2Sc2ccc(C)cc21	0.912	-0.939
COc1ccc(C(=O)NCCCN=C2NS(=O)(=O)c3ccccc32)cc1	1.12	3.06
Cc1ccc(Cl)cc1NC(=O)CN(C)S(=O)(=O)c1cccc2cccnc12	0.819	-2.15
CCCCN(CC)CCNC(=O)C1c2cc(OC)c(OC)cc2C(=O)N2CCc3ccccc3C12 (stereo not drawn)	0.965	-1.05
COc1cccc(NC(=O)N(CCN2CCOCC2)C2CCN(C(C)=O)CC2)c1	1.14	2.15
COc1ccc(-c2noc(CCC(=O)Nc3cccc(C)n3)n2)cc1	0.926	-1.14
O=C1CCc2cc(S(=O)(=O)N3CCC(C(=O)Nc4cccc(Cl)c4)CC3)ccc2N1	1.07	1.14
Cc1cccc(-n2c(Cc3cc(=O)[nH]c(=O)[nH]3)nnc2SCC(=O)N2CCCC2)c1	1.05	0.193
